Assay outcomes: PubChem BioAssay, ICCB-Longwood Screening Facility, Harvard Medical School
Sa helicase inh: blocks Staphylococcus aureus DNA helicase | purified S. aureus helicase, fluorescence unwinding assay; about half of the hits fall short of the stated cut | inhibition, %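 (tested at about 80 µM)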 | 120,000 compounds, 0.05% hits;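 active = both duplicates at 50% or more, or one of them with a favoured structure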;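 note: 0% = mean of negative control wells and 100% = mean of positive control wells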
MgrA DNA FP: S. aureus MgrA-DNA binding modulation; fluorescence polarization; inhibition, %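 (about 10 µg/mL by stock and volumes)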; 84,000 compounds, 0.13% hits;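 active = above 50% in either of two replicates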;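 note: 0% = protein plus DNA without compound and 100% = DNA alone without protein; higher means less MgrA bound to DNA so lower polarization; one replicate is shown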
* = called active by the depositor; . = no result given. Some of the compounds tested; rates above refer to the full screens.

Sa helicase inh,MgrA DNA FP,SMILES
5,-2.1,Cc1ccc2oc(=O)c3cc(C(=O)NCCN4CCN(Cc5ccccc5)CC4)sc3c2c1
2,1.1,CNC(=S)N(Cc1ccco1)Cc1cc2ccc(C)cc2[nH]c1=O
-13,-1.4,O=S(=O)(CCc1ccccc1)/N=C/c1cccs1
-5,.,CCc1cc2c(COC(=O)c3ccccn3)cc(=O)oc2cc1O
7,10,CCN(Cc1ccccc1)C(=O)CC1Oc2ccccc2NC1=O (stereo not drawn)
-3,0.0,COc1ccccc1C(=O)COC(=O)CCC1CCCC1
.,3.3,O=C(/C=C/Sc1ccccn1)c1ccccc1
11,1.3,COc1ccc(OC)c(CNC(=O)C2CCCN(S(=O)(=O)N3CC(C)CC(C)C3)C2)c1 (stereo not drawn)
.,-0.7,NC(=O)C(c1ccccc1)C1CCCC1 (stereo not drawn)
.,-1.2,COc1cc(C2C(C#N)=C(C)NC3=C2C(=O)CCC3)ccc1OCc1ccccc1 (stereo not drawn)
-9,2.3,O=C1/C(=C/c2cccnc2)CS/C1=C\c1cccnc1
-5,.,CCOC(=O)/C(=N\Nc1ccccc1Cl)N(C)C1CCN(C)CC1
-9,.,Cc1ccc2nc(SCC(=O)N(C(C)C)C(C)C)[nH]c2c1
11,0.5,O=C(NCc1ccc(Cl)cc1)c1ccc2c(=O)n(-c3ccccc3)c(=O)[nH]c2c1
-9,-0.4,Cc1ccc(C(=O)OCc2cn3ccccc3n2)cc1
-12,.,CCOC(=O)c1sc(Nc2nc3ccccc3nc2Cl)c(C#N)c1C
5,2.7,Cc1c(NC2CS(=O)(=O)CC2O)c(=O)n(-c2ccccc2)n1C (stereo not drawn)
.,-0.8,CC(=O)N1[C@@H](c2ccc(C)cc2)SC(C)(C)[C@@H]1C(=O)O
-5,.,CC1Cc2ccccc2N1CC(=O)Nc1ccc(C#N)cc1 (stereo not drawn)
5,-0.6,c1ccc(SCCN2CCN(CCSc3ccccc3)CC2)cc1
0,-2.0,CC1=CC(c2ccc(F)cc2)C(C(=O)O)(C(=O)n2nc(C)cc2C)CC1 (stereo not drawn)
-20,.,COc1ccc(C(=O)n2ncc(C#N)c2N)cc1
.,-1.4,CNC(=S)Nc1cscc1S(=O)(=O)c1ccc(Cl)cc1
.,-3.8,O=C(O)CCSC1CC(=O)N(c2ccccc2)C1=O (stereo not drawn)
.,0.1,Fc1ccc(-c2cn3c(n2)Cc2ccccc2C3)cc1
.,-0.6,O=C(CNc1ccccc1C(=O)O)c1ccccc1
6,-6.8,Cc1ccc(OCc2nc(N)nc(N(C)C)n2)cc1C
-6,.,C=CCn1c(SCc2nnc(-c3cccs3)o2)nc2scc(C3CC3)c2c1=O
5,-0.4,Cc1ccc2oc(=O)n(CC(C)C)c2c1
11,.,CC(C)c1ccc(NC(=O)CSc2ncnc(N)n2)cc1
-3,.,CCn1c(-c2ccc3c(c2)OCCO3)cnc1SCc1cc(=O)n2ccsc2n1
.,-1.1,C=CCOc1c(Br)cc(Br)cc1/C=C1\NC(=S)NC1=O
5,-1.1,CNC(=O)C1CCN(c2nnc(-n3c(C)ccc3C)s2)CC1
13,.,COc1ccc(Cn2c(=O)c3oc4ccccc4c3n(CC(=O)Nc3ccccc3)c2=O)cc1
13,2.5,Cn1c(CNC(=O)Cc2cccnc2)nnc1SCc1ccccc1
.,-1.7,Clc1ccc(C(=Nc2ccccc2)c2ccccc2)cc1
2,.,O=c1[nH]c2ccc(S(=O)(=O)NCc3cccnc3)cc2[nH]1
-4,-2.2,CCN(C(=O)CCc1ccccc1)c1ccccc1
-11,.,CCOc1ccc(CN(C)C(=O)CNC(=O)c2ccc(Br)o2)cc1OC
9,.,O=C(O)CCC1NCC(Cn2c3ccccc3c3ccccc32)OC1=O (stereo not drawn)
-12,.,COc1cc(OC)c(NC(=O)Cn2nc(C)c3c(C)n(-c4ccccc4)nc3c2=O)cc1Cl
-14,.,Oc1ccccc1-c1nnco1
8,0.1,O=C(/C=C/c1ccc(Cl)cc1)Nc1nnc(C2CC2)s1
4,-1.7,CCOc1ccccc1N(C)C(=O)c1cc2cc3ccc(OC)cc3nc2s1
21,-0.2,CCC(=O)c1ccc(Cl)c(Cl)c1
.,0.2,COc1ccc(/C=C(\C#N)c2ccc([N+](=O)[O-])cc2)cc1
12,2.6,COc1ccc(Nc2ccc3nnc(-c4ccc(Br)cc4)n3n2)cc1
-7,0.8,CCOC(=O)NC1(/N=C(/Nc2ccccc2)N2CCOCC2)Oc2ccccc2O1
.,-0.1,CCOC(=O)CSc1cc(-n2cccc2)c(Cl)cc1[N+](=O)[O-]
-16,.,COc1ccc(C(=O)CSc2nc3c(cc2C#N)CCCC3)cc1
-12,0.3,O=C(NCCc1ccccc1)c1ccc(-c2ccccc2)cc1
-2,-0.8,CS(=O)(=O)N1CC(=O)Nc2ccccc21
-27,.,Cc1c2cnn(-c3ccccc3)c(=O)c2c(C)n1CCCC(=O)NC(C)(C)C
-27,.,CC(C)(C)C1CCC(=NNC(=O)c2ccccc2O)CC1 (stereo not drawn)
-8,.,CCC(CC)NC(=O)c1cc(=O)[nH]c2ccccc12
-24,3.2,Cc1cccc(OCC(=O)OCCN2CCCC2=O)c1

(list continues)
Sa helicase inh,MgrA DNA FP,SMILES
-7,.,COc1ccc(CN(Cc2cccs2)C(=O)c2ccc(C)o2)cc1OC
-7,-2.2,O=C1c2ccccc2C2N1c1ccccc1S(=O)(=O)N2Cc1ccccc1 (stereo not drawn)
-82,.,CCCCCCN1C=CC(=C2C(=O)c3ccccc3C2=O)C=C1
-1,.,CC1(C)N=C(SCC(=O)Nc2ccccc2)c2ccccc2N1
.,7.6,CC1=C(/C=C/C(C)=C/C=C/C(C)=C/CO)C(C)(C)CCC1
.,-3.2,Cc1ccc(OC(=O)c2nn(-c3ccccc3)nc2C)c([N+](=O)[O-])n1
12,0.2,NC(=O)c1cnn2c(C(F)(F)F)cc(-c3ccccc3)nc12
-10,.,Clc1ccc(-c2noc3ncnc(N4CCCC4)c23)cc1
1,.,CSc1nsc(SC)c1NC(=O)N1CCCC1
-14,.,O=C(O)Cn1ncn2c(cc3ccccc32)c1=O
-5,.,CCCNC(=O)c1cnn(-c2cccc(C)c2)c1-n1cccc1
-3,1.1,CCOc1cc(C)c(Cl)cc1S(=O)(=O)Nc1ccccn1
7,1.1,CN(C(=O)c1cccc(S(=O)(=O)NCc2ccccc2)c1)C1CCCCC1
0,.,O=c1cc(N2CCN(c3ccccc3)CC2)[nH]c(=O)n1-c1ccccc1
16,.,CCOc1cc(-c2ccc(O)c(O)c2)cc(=O)c2c(C)oc(C)c12
12,6.6,CCc1ccc2[nH]c(=O)c(Cc3ccccc3)c(O)c2c1
-9,.,Cc1onc(-c2ccccc2Cl)c1C(=O)N=C1N=C2C=CC=CN2Cc2ccccc21
-4,.,Cc1noc(C)c1COC(=O)CNS(=O)(=O)c1c(Cl)cccc1Cl
2,.,[O-][n+]1ccccc1Oc1ncnc2sc3c(c12)CCCC3
.,26,CC(=O)n1c(-c2ccc(C)cc2)cc(-c2ccc(C)cc2)c(C#N)c1=O
9,-0.3,COc1ccc(CCN2C(=O)C3C(C(=O)Nc4cc(C)on4)C4(C)C=CC3(O4)C2C(=O)NC2CCCCC2)cc1 (stereo not drawn)
.,-2.4,O=c1[nH]c2ccc(OC(F)(F)F)cc2c(O)c1-c1ccccc1
-1,.,CN(c1ccccc1)c1nc(N)c2c(N)nc(SCC(=O)O)cc2c1C#N
.,-0.5,CSc1nc2ccccc2c(=O)n1CCc1ccccc1
3,1.0,CC1(C)N=C(c2ccccc2)C(=O)N1
.,-0.6,CCC1CCCCN1C(=O)CCN1C(=O)c2ccccc2C1=O (stereo not drawn)
-4,.,COC(=O)c1ccccc1N1C(=N)SCC1=O
.,1.1,[O-]/[N+](=C\c1ccccc1)C1CCCCC1/[N+]([O-])=C/c1ccccc1 (stereo not drawn)
4,.,Cc1sc2ncn(CC(=O)Nc3ccc(Oc4ccccc4)cc3)c(=O)c2c1S(=O)(=O)N1CCCCC1
7,.,NC(=O)CSc1ncnc2c1oc1ccccc12
19,0.0,Cn1ccnc1SCC(=O)n1c2c(c3ccccc31)CCCC2
77*,.,Cc1cc(C)c2nc3nc(C)cc(C)c3c(N)c2c1
-12,.,CNC1(C#N)CCC(C)CC1 (stereo not drawn)
5,4.0,Cc1ccccc1OCC(=O)Nc1sc2c(c1C(=O)NCc1ccco1)CCCC2
.,1.6,COc1nccnc1NS(=O)(=O)c1ccc(NC(=O)CSc2nc3ccccc3s2)cc1
14,-1.7,O=C(OCC(F)(F)F)c1ccc(COc2ccc3ccccc3c2)o1
7,.,CCOC(=O)c1c(-c2ccccc2)oc2ccc(O)c(CN(C)C)c12
6,.,CCC(Sc1nc2ncccc2o1)C(=O)NC1CCCCC1 (stereo not drawn)
5,3.6,COc1ccc(/C(C#N)=C/N2CCOCC2)cc1OC
5,.,O=C(CSc1nnc(-c2cccnc2)o1)c1ccccc1
.,-2.2,CNCCC=C1c2ccccc2C=Cc2ccccc21
-1,-1.4,CC(c1ccco1)N(C(=O)/C=C/c1cccs1)c1ccccn1 (stereo not drawn)
-10,.,CC1CCC2(CC1)NC(=O)N(NC(=O)CN1c3cccc4cccc(c34)S1(=O)=O)C2=O (stereo not drawn)
-9,.,Cc1cnc(-c2oc3ccc(Br)cc3c(=O)c2C)cn1
12,.,Cn1c(=O)n(C)c2cc(C(N)=O)ccc21
-3,.,CC(C)N1C(=O)CCC1C(=O)NCCc1ccccc1 (stereo not drawn)
-10,18,O=C1/C(=C/c2ccc(Br)cc2)C=C(c2ccccc2)N1c1ccccc1O
-5,.,Cc1ccc(N(CC(=O)N2CCN(c3ccccc3)CC2)C2=NC(=O)CS2)cc1
4,-1.7,CC(=O)Nc1ccc(CN2CCOCC2)cc1
-4,.,CSc1nc2ccc(NC(=O)C3CCCO3)cc2s1 (stereo not drawn)
-4,-0.2,N#CC1C(=O)Nc2nc(N)[nH]c(=O)c2C1c1ccc(F)cc1 (stereo not drawn)
.,-1.3,Cc1nnc(NC(=O)CN2C(=O)/C(=C/c3cccc(Br)c3)SC2=S)s1
4,.,CC(=O)Nc1ccc(S(=O)(=O)C(C#N)c2nc3ccccc3nc2NCCCO)cc1 (stereo not drawn)
4,-0.6,CCOC(=O)Cn1c(=O)oc2cc(S(=O)(=O)NC3CCCCC3)ccc21
12,.,C=C(C)n1c(=O)[nH]c2ccccc21
14,.,Oc1ccccc1N1CCN(c2nc(CN3CCOCC3)nc3sc4c(c23)CCCC4)CC1

(cont.)
Sa helicase inh,MgrA DNA FP,SMILES
-13,.,O=S(=O)(N=P(Nc1nccs1)(c1ccccc1)c1ccccc1)c1ccccc1
-4,.,OC(CNC1CCCCC1)CNC1CCCCC1
.,-0.4,Cc1ccc(Cn2[nH]nnc2=S)cc1
9,.,COc1ccccc1N1CCN(C(=O)CN(Cc2ccccc2)S(=O)(=O)c2ccc(F)cc2)CC1
13,.,COc1cccc(C(=O)Nc2cccc(-c3cn4cccnc4n3)c2)c1OC
12,-2.2,CCOC(=O)N1CCC(N2Cc3cccc(C(=O)O)c3C2=O)CC1
-12,.,Cc1ccc(NC(=O)OCC(F)(F)F)cc1Cl
15,-0.3,Cc1cccn2cc(-c3cccc(S(=O)(=O)N(C)C)c3)nc12
13,1.5,O=C(NCC1CCCO1)C1CCCN(S(=O)(=O)c2ccc(Br)cc2)C1 (stereo not drawn)
.,-0.3,CC1(C)CC(=O)C2=C(C1)Nc1ccccc1N(C(=O)c1ccccc1)C2c1ccc([N+](=O)[O-])cc1 (stereo not drawn)
10,1.1,CCCc1cc(=O)oc2cc3occ(-c4ccccc4)c3cc12
21,.,O=c1ccc(=O)n(Cc2ccccc2)[nH]1
8,-2.4,NCc1ccc(-c2nc3ccccc3o2)cc1
.,0.3,CCOC(=O)c1ccc(N2CCOCC2)c(NC(=O)c2ccc(Cl)c(Cl)c2)c1
-8,.,Cc1cccc(CCNC(=O)Cc2noc3ccccc23)c1
14,.,Cc1[nH]c(=O)[nH]c(=O)c1CC(=O)O
3,1.8,Nn1c(C(O)c2ccccc2)n[nH]c1=S (stereo not drawn)
-5,.,CCN(CC(=O)Nc1ccc2c(c1)OCCO2)C(=O)c1c(-c2ccccc2)noc1C
